# Assay outcomes: PubChem, National Center for Advancing Translational Sciences (NCATS)
# VACV Venus inh – inhibitors of vaccinia virus (Venus reporter); Vaccinia virus Venus reporter expression, fluorescence; Potency, µM (titrated, usually from 36.5 µM), inactives show at the highest dose activity change, negative = inhibition, hits mostly inhibitors; hit rate 0.46% among 330,000; active means well fitted inhibition curve with a large enough effect; inconclusive means small, poorly fitted or top-dose-only effect; inactive means no such curve, though single readings can be large or run the other way; tested in A549 cells; note: nearly all actives have a fitted effect of over 30% in size; inactives centre near -10
# Vaccinia mCherry – inhibitors of vaccinia virus infection (mCherry reporter signal); Vaccinia virus mCherry reporter infection, fluorescence; about a quarter of the inactives have no number; hit rate 0.63% among 310,000; Potency, µM (series often up to 36.5 µM), for the others: at the top dose activity change, negative = inhibition, hits mostly inhibitors; AID 720579; active = well fitted inhibition curve with a large enough effect; inconclusive = small, poorly fitted or top-dose-only effect; inactive = no such curve, though single readings can be large or run the other way; tested in A549 cells; note: nearly all actives have a fitted effect of over 35% in size; inactives centre near -10
# * = called active by the depositor; i = inactive; u = inconclusive; x = not tested or not shown; & = joins results of further samples; [ ] = another dose, or the depositor's remark. % is set by controls: 0 for no effect and ±100 for the full control effect; potency is the fitted concentration of half-maximal effect.
compound,VACV Venus inh,Vaccinia mCherry
O=C(O)CCCC(=O)OCCc1cc2ccccc2c(=O)o1,3.0%,-20.6%
C[C@H]1C=CC(=O)O[C@H]1c1ccccc1,3.16µM*,u
Cc1ccc(NC(=O)/C(=C/c2cccc([N+](=O)[O-])c2)NC(=O)C2CCCCC2)c(C)c1,-4.9%,u
CCc1ccc(NC(=O)CCc2ccc(CC)o2)cc1,-8.6%,i
NC(=O)SC/C(=N\S(=O)(=O)c1ccccc1)Nc1ccccc1,3.3%,-15.1%
CCOc1ccc(NC(=O)CN(C)c2ccc(S(=O)(=O)N(C(C)C)C(C)C)cn2)cc1OCC,-29.4%,x
COc1cc(OC)cc(C(=O)NCCc2csc(-c3ccc(C(F)(F)F)cc3)n2)c1,-17.6%,-15.5%
CCOc1ccc(NC(=O)CSc2nnc(Cn3cnc([N+](=O)[O-])n3)n2CC)cc1,-2.8%,i
COC(=O)C1CCN(S(=O)(=O)CCNC(=O)c2cccc(OC)c2)CC1,-12.3%,i
Cc1cc2c(cc1S(=O)(=O)NCc1ccc(Cl)cc1)OCC(=O)N2,-19.3%,-6.0%
CN(Cc1ccccn1)C(=O)CC1C(=O)NCCN1Cc1cccc(Oc2ccccc2)c1 (stereo not given),-9.9%,i
O=C(O)/C=C\c1ccccc1Oc1cccc(Cl)c1,-0.6%,-11.1%
O=C(O)CCN1C(=O)/C(=C\c2cccc(OCC(=O)Nc3ccc(Cl)cc3)c2)SC1=S,-18.0%,-21.8%
O=C(NCc1ccccc1Cl)c1cnc2ccccc2n1,-4.6%,i
CCOC(=O)CC(NC(=O)c1cc2cc(Cl)ccc2oc1=O)c1ccc(C)cc1 (stereo not given),-9.9%,-8.7%
CCOc1ccc(NC(=S)NCCCn2ccnc2)cc1,-6.9%,i
Nc1ncc(-n2cncn2)c(-c2ccccc2)n1,-4.9%,5.5%
NS(=O)(=O)c1ccc(-n2cccc2C=O)cc1,-9.1%,-9.4%
CC(O)CN(CC(C)O)c1ccc2c(c1)Cc1cc([N+](=O)[O-])ccc1-2 (stereo not given),133.2%[activator],-7.2%
COc1cc2cnc(-c3ccccc3)c(C(=O)c3ccc(F)cc3)c2cc1OC,-29.7%,i
CCOC(=O)C1=CCN(S(=O)(=O)c2ccc(C)cc2)C1c1ccc(C)cc1 (stereo not given),-6.7%,i
CC(C)OC(=O)c1nnn(-c2nonc2N)c1CN1CCc2ccccc2C1,-11.5%,-15.1%
COc1cccc(C(=O)O/N=C(\C)c2cnccn2)c1,-7.9%,-0.4%
CCCOC(=O)C1C2C=C[C@]3(CN(CCc4ccccc4)C(=O)[C@H]13)O2 (stereo not given in full),-13.1%,x
CC1Cc2ccccc2N1C(=O)CSc1nnc(-c2ccc(S(=O)(=O)N3CCCC3)cc2)n1C (stereo not given),-15.5%,i
O=C1NC[C@H](CCCCN2C[C@H](Cc3ccc(O)cc3)N(CCC3CCCCC3)C(=O)C2=O)N(CCC2CCCCC2)C1=O,-11.7%,-6.4%
COc1ccccc1N1CCN(C(CNC(=O)c2ccc3c(c2)OCO3)c2cccnc2)CC1 (stereo not given),u,-15.3%[1.46 µM]
O=C1c2ccncc2C(=O)N1Cc1cccc(Cl)c1,-4.5%,x
O=C(Nc1ccc(C(=O)N2CCCCC2)cc1)c1cccs1,-5.5%,i
COc1cc(CCC(=O)Nc2ncc(C)s2)cc(OC)c1OC,0.0%,i
Cc1cccc2cc(COC(=O)C(C)(C)C)c(=O)[nH]c12,2.4%,4.4%
O=C(Nc1ccon1)c1sc2ccccc2c1Cl,-12.4%,-14.6%
Cc1ccc(S(=O)(=O)c2cn(Cc3ccccc3F)c3cc4c(cc3c2=O)OCO4)cc1,u,u
CC(C)(C)NC(=O)C(c1ccc(F)cc1)N(Cc1cccs1)C(=O)c1ccc(CN2CCOCC2)o1 (stereo not given),-18.1%,-22.1%
CCS(=O)(=O)N1CCN(C(=O)c2ccco2)CC1,-16.6%,-14.7%
Cc1ccc(NC(=O)CN2CCN(C(=O)C3CC3)CC2)c(F)c1,-4.8%,0.2%
O=C(Nc1ccc2c(c1)OCCO2)c1ccccc1,-11.2%,-10.8%
Cc1[nH]nc2c1C(c1cc(Br)cs1)C(C#N)=C(N)O2 (stereo not given),-9.3%,-22.4%
CCOC(=O)N/N=C/c1ccc(F)cc1F,-3.7%,-19.2%
COc1ccc(CNC(=O)c2cccc3c(-c4ccc(F)c(F)c4)coc23)cc1OC,-18.3%,11.4%
COc1cccc(CNc2cnc3ccccc3c2)c1O,-26.5%,-23.1%
COc1cccc(NC(=O)CC2C(=O)NC3CCCCC3N2C(=O)c2ccc(F)cc2)c1 (stereo not given),-3.3%,-13.3%
O=C(N/N=C/c1ccc(-c2ccc(Cl)c(C(=O)O)c2)o1)c1cc2c(ccc3ccccc32)o1,-12.6%,u
CC(OC(=O)C1=COCCO1)C(=O)c1ccc(Br)cc1 (stereo not given),-10.8%,-9.1%
CCN(CC)S(=O)(=O)c1cccc(-c2n[nH]c(=S)n2/N=C/c2ccc(OC(F)F)cc2)c1,-13.0%,-24.3%
Cc1cc(C)cc(Oc2ccc(S(=O)(=O)N3CCN(C)CC3)cn2)c1,-26.9%,-11.8%
COc1cc2ccnc(Cc3cccc(OC)c3OC)c2cc1OC,-21.3%,-17.5%
CCC(C)c1ccc(NC(=S)NC(C)C2CCCO2)cc1 (stereo not given),-13.6%,-9.0%
COCCn1c(-c2ccccc2)c(C)n2c3c(=O)n(C)c(=O)n(C)c3nc12,0.9%,-3.5%
O=C(c1ccccc1)c1nc[nH]c1C(=O)Nc1ccccc1,-12.8%,x

# Copied from the list.
# Result for O=C1c2ccncc2C(=O)N1Cc1cccc(Cl)c1 in VACV Venus inh: -4.5%
# Result for CCS(=O)(=O)N1CCN(C(=O)c2ccco2)CC1 in Vaccinia mCherry: -14.7%

# The list goes on:
compound,VACV Venus inh,Vaccinia mCherry
COc1ccc(N2CCN(C(=O)CN(C)S(=O)(=O)c3cccs3)CC2)cc1,-15.8%&-1.2%,-5.3%&-5.7%
CCOc1ccc(CCNC(=O)c2cc3c(s2)CS(=O)(=O)C3)cc1OCC,-0.9%,-6.0%
COc1ccc(S(=O)(=O)Nc2c(C)cc(C)cc2C)c2cccnc12,-15.8%,i
CC(C)(C)NC(=O)C(C1CC1)n1c(-c2ccccc2)nc2ccccc21 (stereo not given),1.1%,-16.4%
Cc1ccc(CCNC(=O)C2CCCN(S(=O)(=O)c3c(C)noc3/C=C/N(C)C)C2)cc1 (stereo not given),-21.3%,-17.0%
Cc1cnn(-c2cc(N/N=C/c3ccccc3Cl)ncn2)c1,-12.6%,-14.0%
CCOC(=O)c1ccc(NC(=O)c2c(NCc3cc(OC)ccc3OC)sc3c2CCC3)cc1,1.2%,-8.8%
CCOc1ccc(N2CC(C(=O)Nc3ccc(S(=O)(=O)N4CCCCC4)cc3)CC2=O)cc1 (stereo not given),u,-19.8%
O=C1CCC(=O)N1CC(=O)N1c2ccccc2Sc2ccccc21,-11.3%,-1.7%
O=C(CN(Cc1ccco1)C(=O)c1ccccc1)Nc1ccc(Cl)c(Cl)c1,-22.8%,i
CC(C)C1C(=O)N(Cc2cn(CCC3OCCCO3)nn2)CCS(=O)(=O)N1Cc1ccc(-c2ccc(Cl)cc2)cc1 (stereo not given),-12.2%,i
Cc1nn(-c2ccccc2)c(C)c1/C=C/C(=O)OCC(=O)Nc1ncc(Cl)cc1Cl,-5.1%,-11.9%
O=[N+]([O-])c1cc(C(F)(F)F)ccc1N1CCCC(O)C1 (stereo not given),-3.8%,-17.8%
CC1(C)CC(=O)C(C=Nc2cc(C(=O)c3ccccc3)ccc2N)=C(O)C1,15.8%,-26.1%
COc1ccc(S(=O)(=O)N2CCCCC2)cc1NC(=O)Cc1c[nH]c2ccccc12,-7.2%,-7.2%
COCCNC(=O)CN1C(=O)C(C)N=C(c2ccccc2)c2cc(Cl)ccc21 (stereo not given),-11.3%,i
Cn1c(=O)c2[nH]c(Cc3cccc4ccccc34)nc2n(C)c1=O,-0.2%,-14.7%
CCc1nnc(NC(=O)C2CCN(S(=O)(=O)Cc3ccccc3)CC2)s1,-7.1%,-13.6%
CCCc1nc2sc3c(N4CCCCC4)ncnc3c2c2c1CCCC2,1.8%,0.0%
Cc1ccc(N(CC(=O)Nc2cc(C)ccc2C)S(=O)(=O)c2c(C)noc2C)cc1,7.8%,-9.3%
COc1ccc(-c2coc3c(C(=O)NCc4cccc(Cl)c4)cccc23)c(C)c1,-22.3%,-25.8%
COc1cccc(CCNC(=O)c2cc(COc3ccc(C)c(C)c3)on2)c1OC,-17.8%,i
Cc1cc(C)c(S(=O)(=O)Nc2cc(Cl)c3oc4c(c3c2)C(=O)CCC4)cc1C,-16.3%,i
CN(C)CCNC(=O)c1ccc2c(c1)N(Cc1c(F)cccc1Cl)C(=O)c1ccccc1S2,-24.7%,-6.9%
Cn1c(O)c(/C=C2\N=c3ccccc3=C2CCNC(=S)NC2CC2)c(=O)n(C)c1=O,6.7%,i
Cc1ccccc1NC(=S)N(Cc1ccccn1)Cc1ccccc1Cl,-7.3%,-14.0%
COc1cccc(/C=N/n2c(SC)nnc2-c2ccccc2)c1O,u,x
COC(=O)c1ccc(N2C(=O)CC(N(C)CCc3ccc(OC)c(OC)c3)C2=O)cc1 (stereo not given),-5.9%,x
O=C(Nc1ccccc1-c1ccccc1)C1CCCN(c2ncccn2)C1 (stereo not given),-11.9%,-9.2%
COCCn1c(=S)[nH]c2cc(C(=O)N(CCO)Cc3ccccc3)ccc2c1=O,-11.1%,i
Cc1cc(C)cc(Oc2nc(C(F)(F)F)nc3ccccc23)c1,-12.3%,x
COc1ccccc1/C=C1\SC(=S)N(CCC(=O)N2CCN(C)CC2)C1=O,-25.6%,u
CC1CCCCN1c1nnc(NC(=O)Nc2ccccc2F)s1 (stereo not given),-7.4%,-10.1%
O=C(NCC(c1ccco1)N1CCN(c2ccccc2F)CC1)C(=O)NC1CC1 (stereo not given),4.9%,1.0%
N#C/C(=C/c1ccc(N2CCOCC2)o1)c1ccc(Cl)cc1,17.4%,-15.4%
Cc1sc2ccc3sccc3c2[n+]1C,-5.1%,i
CC1=C(C(=O)NCc2ccccc2F)C2(CCCCC2)OC1=O,-0.8%,9.8%
CCN(CC)CCN(C(=O)c1ccc(S(=O)(=O)N(C)C2CCCCC2)cc1)c1nc2ccc(OC)cc2s1,-9.3%,-14.9%
Cc1cccc(NC(=S)NC(=O)CC2CC(C)(C)OC2=O)c1 (stereo not given),-3.6%,i
COc1ccc(-c2csc(NC(=O)Cn3nc(C)cc3C)n2)cc1,-6.0%,-11.9%
O=C(Nc1ccc(Cc2ccncc2)cc1)C1CCC(N2C(=O)C3CC=CCC3C2=O)CC1 (stereo not given),-27.8%,u
Cc1nnc(NC(=O)c2cccn(Cc3ccccc3F)c2=O)s1,-7.1%,-10.9%
CN(C(=O)CSc1nc2cc([N+](=O)[O-])ccc2n1-c1ccc(F)cc1)C1CCS(=O)(=O)C1 (stereo not given),-25.9%,-5.8%
CCC(C)NC(=O)Cn1ccc2cc(S(=O)(=O)N3CCCCC3)ccc21 (stereo not given),-3.8%,-4.1%
CCOC(=O)N1CCN(C(=O)CCSCCc2ccncc2)CC1,-13.5%,-25.0%
CCCCc1nn2c(=O)cc(COC(=O)c3ccccc3NC(=O)c3ccccc3OC)nc2s1,-1.6%,-10.6%
CCn1c(-c2ccccc2F)nc2cc(C(=O)N3CCNC(=O)C3CC(=O)OC)cc(NC(C)=O)c21 (stereo not given),10.0%,2.2%
CCCCN1C(=O)c2ccc(C(=O)NC3=NCCS3)cc2C1=O,-16.5%,x
COc1ccc2nc(C)cc(SCC(=O)NNC(=O)COc3ccccc3)c2c1,-6.9%,-15.3%
CC1CCN(C2CCN(C(=O)c3ccccc3F)CC2)CC1,4.6%[7.34 µM],-4.1%[7.34 µM]

# The list goes on:
compound,VACV Venus inh,Vaccinia mCherry
COc1ccc2cc(C(=O)/C=C/c3cc(OC)c(O)c(OC)c3)ccc2c1,321.2%[activator],u
Cc1cnc(SCC2CCCO2)nc1C1CCCN(C(=O)C2=NNC(=O)CC2)C1 (stereo not given),-13.1%,-14.8%
COC(=O)C1C(=O)CC(C)(O)C(C(=O)OC)C1/C=C/c1ccccc1 (stereo not given),-10.8%,x
CCCCn1c(N)c(N(CC(C)C)C(=O)c2cccc(S(=O)(=O)N3CC(C)OC(C)C3)c2)c(=O)[nH]c1=O (stereo not given),-4.3%,i
Cc1ccc(Nc2nnc(C)c(=O)[nH]2)cc1,-1.4%,-0.1%
O=C(c1ccc(N2C(=O)C3C4c5ccccc5C(c5ccccc54)C3C2=O)cc1)N1CCOCC1 (stereo not given),-14.3%,i
CCC(O)c1cnc(OCc2ccccc2)nc1OCc1ccccc1 (stereo not given),-21.4%,i
Cc1cccc(C)c1OCC(=O)N/N=C/c1cccnc1,-15.3%,-23.8%
COc1ccc(NC(=O)COc2nc3ccccc3nc2N2CCOCC2)c(OC)c1,2.0%,-0.6%
CCOC(=O)Cn1c(=O)oc2cc(S(=O)(=O)N(C)c3cccc(C)c3)ccc21,-3.3%,-11.8%
